Giardia killer: Small Molecules that selectively kill Giardia lamblia: qHTS. Giardia lamblia trophozoite viability. activity change, % at 7.66 µM, hits read low. 340,000 compounds, 0.15% hits; in the data active = activity change below about -80%; inconclusive = between about -30% and that limit;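 also: parasites exposed to compound for two days anaerobically before the ATP read; % is scaled to controls: 0 for no effect and ±100 for the full control effect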
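ATP-content bioluminescence gauges trophozoite survival. Cells (100/well) receive compound and incubate anaerobically for 48 hrs at 37 deg C; detection reagent follows for 15-30 min at room temperature.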
USP2a inh: qHTS Assay for Inhibitors of Ubiquitin-specific Protease USP2a Using CHOP2 as the Reporter | 330,000 compounds, 0.01% hits | USP2 core, Ub-CHOP2 coupled fluorogenic reporter, 485/531 | Potency, µM (titrated, usually from 38.3 µM), for inactives: at the highest dose activity change, negative = inhibition, usual class: inhibitors | Ubiquitin carboxyl-terminal hydrolase 2 (Homo sapiens), O75604;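 also: potency is read from the fitted curve at half-maximal effect; plate controls were DMSO wells for no effect and full inhibition by NEM control for full effect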
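Deubiquitinase activity read as fluorescence (485/531 nm) after Ub-CHOP2 cleavage activates the enterokinase reporter on its substrate; USP2 core 10nM, Ub-CHOP2 and substrate 25nM each, 30min compound preincubation then 60min RT; data normalized to NEM, curves fitted.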
KCNH2 WT inh: qHTS for Inhibitors of KCHN2 3.1: Wildtype qHTS; U2OS, BacMam KCNH2, thallium flux FluxOr; stronger effect = lower value; activity change, % at 1.84 µM; 340,000 compounds, 0.37% hits;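 active = maximum activity change below -70%; inconclusive = maximum activity change between -70% and -50%; inactive = maximum activity change above -50%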; also: % is scaled to controls: 0 for no effect and ±100 for the full control effect
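U2OS cells were transduced with wild-type KCNH2 virus (2.03 x 10^8 / mL) for 4 h at room temperature, then cultured overnight at 37 C. Thallium flux was read with FluxOr dye. Rate constants were normalized to DMSO controls.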
B2AR arrestin: qHTS assay of beta-arrestin-biased ligands of beta2-adrenergic receptor; AID 492947, 2010; beta-arrestin recruitment to beta2AR, cell-based reporter; 330,000 compounds, 0.02% hits; Potency, µM (doses to about 46.1 µM), for the others: at the highest dose activation, usual class: activators;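 also: potency is read from the fitted curve at half-maximal effect; 0% = DMSO controls and full agonism = EC100 isoproterenol or metaproterenol; nearly all actives have a fitted effect of over 65% in size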
GALK inh: qHTS Assay for Inhibitors of Human Galactokinase (GALK); P51570; Purified GALK, Kinase-Glo residual ATP luminescence; Potency, µM (doses to about 57.5 µM), for inactives: at the highest dose activity change, negative = inhibition, most hits filed as inhibitors; 270,000 compounds, 0.007% hits; AID 1868, 2009; also: potency is read from the fitted curve at half-maximal effect; % is scaled to controls: 0 for no effect and ±100 for the full control effect
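GALK at 5 nM final was combined with compound, 35 uM ATP and 100 uM galactose in HEPES pH8.0 with MgCl2 and DTT. The reaction ran one hour at room temperature before luminescent ATP detection.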
KCNH2 3.1 inh: qHTS for Inhibitors of KCHN2 3.1: Mutant qHTS; activity change, % (tested at about 1.8 µM); 340,000 compounds, 0.95% hits; U2OS KCNH2 3.1, thallium flux FluxOr; stronger effect = lower value; AID 720553, 2013;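 active = maximum activity change below -70%; inconclusive = maximum activity change from -70% to -50%; inactive = maximum activity change above -50%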;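 also: thallium influx rate constant from kinetic fluorescence after stimulation buffer; % is scaled to controls: 0 for no effect and ±100 for the full control effect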
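Virally transduced U2OS (3.1 isoform, 4 h infection in dark at RT) → overnight 37 C → FluxOr + Red40 in HBSS/HEPES, 45 min → stimulation buffer, 2 min kinetic read → rate constant vs DMSO controls.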
Coupling enz: qHTS Assay for Inhibitors of Fructose-1,6-bisphosphate Aldolase from Giardia Lamblia: Coupling assay counterscreen. AID 2472, 2010. 290,000 compounds, 0.67% hits. activity change, negative = inhibition, % at 58.2 µM, hits read low. coupling enzyme system counterscreen, AmpLite Red fluorescence; in the data active = activity change below about -30%; also: % is scaled to controls: 0 for no effect and ±100 for the full control effect
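First, compound is pin-transferred into glyceraldehyde-3-phosphate coupling-enzyme reagent at 57.5 uM final and held 10 min at RT. Next, substrate, coupling system and AmpLite Red are added. After 20 min RT, fluorescence (525/598 nm) is read.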
CXXC DNA block: qHTS Fluorescence Polarization Assay for Inhibitors of MLL CXXC domain - DNA interaction. Histone-lysine N-methyltransferase 2A (Homo sapiens), Q03164. MLL-CXXC / FITC-HOXA9 DNA fluorescence polarization. Potency, µM (series often up to 115 µM), for inactives: top-dose activity change, negative = inhibition, actives largely listed as inhibitors. 290,000 compounds, 0.037% hits. AID 2662, 2010; active = well fitted inhibition curve with a large enough effect in the polarisation, with a control signal flat, not every such curve was filed as active; inconclusive = small, poorly fitted or top-dose-only effect, or effect the other way, or a change in a side signal; inactive = no such curve, though single readings can be large or run the other way; the % refers to the polarisation; also: potency is read from the fitted curve at half-maximal effect
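Purified MLL-CXXC (added from a 7 uM solution) was preincubated 5 min at ambient with pinned compounds in 50 mM Tris-HCl pH 7.5, 50 mM NaCl, 1 mM DTT, 0.05% BSA. Fluorescein-labeled HOX-A9 DNA (50 nM solution) followed, 30 min, then polarization read.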
Menin-MLL TR inh: qHTS Assay for Inhibitors Targeting the Menin-MLL Interaction in MLL Related Leukemias: Competition With Texas Red Labeled MLL-derived Mutant Peptide; Menin + Texas Red MLL mutant peptide, fluorescence polarization; Potency, µM (highest dose often 61.6 µM), without a hit: top-dose FP activity change, negative = inhibition, actives largely listed as inhibitors; 270,000 compounds, 0.23% hits; AID 1768, 2009; active = well fitted inhibition curve with a large enough effect in the polarisation, with a control signal flat, not every such curve was filed as active; inconclusive = small, poorly fitted or top-dose-only effect, or effect the other way, or a change in a side signal; inactive = no such curve, though single readings can be large or run the other way; the % refers to the polarisation; also: potency is read from the fitted curve at half-maximal effect; % of control where 0% means no effect; many of its hits are not listed in these tables
TRPV1 ag: HTS Assay for Compounds that Act as Agonists of the Vanilloid Receptor 1; activation, % at 8.33 µM; TRPV1-expressing cells, Fluo-8 calcium influx, agonist mode; AID 540275, 2011; Transient receptor potential cation channel subfamily V member 1 (Homo sapiens), Q8NER1; 320,000 compounds, 0.19% hits; in the data active = activation above about 80%; inconclusive = between about 30% and that limit; also: 0% is about no effect
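Cells expressing TRPV1 were dye-loaded with Fluo-8 and read kinetically: 10 s baseline, 3 min after compound (agonist portion), then 2 min after EC20 capsaicin (allosteric enhancer portion). Calcium-bound dye fluorescence at 480/520 nm.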
Numbers without * were called inactive; ? = inconclusive; / = not tested or not shown; & = joins results of further samples; [ ] = dose if it differs, or a comment. Unless noted, calls follow the shape of the dose curve; as a rule, active = well fitted curve in the direction sought with a large enough effect; inconclusive = small, poorly fitted or top-dose-only effect, or another doubt; inactive = no such curve, though single readings can be large; an effect the other way counts as inactive or inconclusive. Only part of the results is shown. The share of hits here may be higher or lower than overall.

Below each compound – Giardia killer, USP2a inh, KCNH2 WT inh, B2AR arrestin, GALK inh, KCNH2 3.1 inh, Coupling enz, CXXC DNA block, Menin-MLL TR inh, TRPV1 ag
Cc1ccc(-n2[nH]c(C)c(C=Nc3ccc(S(=O)(=O)Nc4nc(C)cc(C)n4)cc3)c2=O)c(C)c1
  6, 2%, 1, -0.5%, 1%, -1, 3, 2%, 9%, -3
CC(NC(=O)C1CCC1)c1ccc(Cl)cc1 (stereo not given)
  -1, 1%, -1, 0.0%, 0%, -7, 0, 2%, 29%, 14
CC1=NN(c2ccccc2)C(=O)C1c1ccccc1 (stereo not given)
  1, 1%, 16, -0.4%, 2%, 12, 3, 6%, 1%, -1
CCCOc1cccc(C(=O)N/N=C/c2coc3ccccc3c2=O)c1
  -12, 0%, 5, 0.2%, -1%, -12, /, 3%, /, -4
Oc1c(C(c2ccccc2)N2CCc3ccccc3C2)sc2ncnn12 (stereo not given)
  -7, -1%, -4, 0.0%, 0%, 2, -5, -7%, -23%, 3
CCOC(=O)c1ccc(NS(=O)(=O)CC)cc1
  5, 1%, 4, 0.4%, -1%, 6, 5, 2%, -4%, 3
Cc1ccc(C(=O)/C=C/c2ccc(F)cc2)o1
  1, 1%, -4, -1.1%, 0%, -9, -4, -7%, -3%, ?
NC(=O)[C@@H]1CC2(CC(c3cccc(NC(=O)[C@H]4CCC(=O)N4)c3)=NO2)CN1C(=O)c1ccc(Cl)cc1 (stereo not given in full)
  3, 10%, -11, -0.9%, -4%, -2, 9, -4%, /, -5
CCOC(=O)N1CCN(C2CC(=O)N(c3ccc(C)cc3)C2=O)CC1 (stereo not given)
  5, 1%, 3, -0.2%, 0%, 3, 4, 1%, -20%, -1
Cc1c(C)n(C)c2ccc(C(=O)NCCCN3CCCC3)cc12
  7, 0%, 8, 0.0%, 11%, -97*, 0, 3%, -21%, 18

The last 7 records of the part above come first, to join the parts:
Below each compound – Giardia killer, USP2a inh, KCNH2 WT inh, B2AR arrestin, GALK inh, KCNH2 3.1 inh, Coupling enz, CXXC DNA block, Menin-MLL TR inh, TRPV1 ag
CCCOc1cccc(C(=O)N/N=C/c2coc3ccccc3c2=O)c1
  -12, 0%, 5, 0.2%, -1%, -12, /, 3%, /, -4
Oc1c(C(c2ccccc2)N2CCc3ccccc3C2)sc2ncnn12 (stereo not given)
  -7, -1%, -4, 0.0%, 0%, 2, -5, -7%, -23%, 3
CCOC(=O)c1ccc(NS(=O)(=O)CC)cc1
  5, 1%, 4, 0.4%, -1%, 6, 5, 2%, -4%, 3
Cc1ccc(C(=O)/C=C/c2ccc(F)cc2)o1
  1, 1%, -4, -1.1%, 0%, -9, -4, -7%, -3%, ?
NC(=O)[C@@H]1CC2(CC(c3cccc(NC(=O)[C@H]4CCC(=O)N4)c3)=NO2)CN1C(=O)c1ccc(Cl)cc1 (stereo not given in full)
  3, 10%, -11, -0.9%, -4%, -2, 9, -4%, /, -5
CCOC(=O)N1CCN(C2CC(=O)N(c3ccc(C)cc3)C2=O)CC1 (stereo not given)
  5, 1%, 3, -0.2%, 0%, 3, 4, 1%, -20%, -1
Cc1c(C)n(C)c2ccc(C(=O)NCCCN3CCCC3)cc12
  7, 0%, 8, 0.0%, 11%, -97*, 0, 3%, -21%, 18
CCN(CCO)Cc1csc2cc(C)ccc12
  49[activator], -1%, 4, -0.6%, 2%, 6, -1, 6%, -14%, -5
CCOC1=C/C(=C/c2c(N)n3nc(-c4ccccc4)sc3nc2=O)C=CC1=O
  -2, 5%, -11, -0.1%, 2%, 9, 3, ?, ?, 3
O=C(NCc1ccccc1Cl)c1cc([N+](=O)[O-])ccc1Cl
  ?, 1%, /, -0.5%, 1%, 1, 1, -13%, ?, 16
CCN(CC)S(=O)(=O)c1cccc(-c2nnc(SC(C)C(=O)NCCC3=CCCCC3)o2)c1 (stereo not given)
  9, -1%, 13, 0.0%, -3%, -1, 2, -1%, -2%, 13
Nc1ncnc2c1ncn2[C@@H]1O[C@H](COP(=O)(O)O)[C@@H](O)[C@H]1O
  27, 1%, -5, 0.3%, /, 0, 2, 1%&6%, -9%&4%, 4
CN1CC2(Cc3c1ccc1ccccc31)C(=O)OC(C)(C)OC2=O
  -12&22, 0%, -12, -0.8%, 1%, 1, -2, 5%, 15%, 3
O=C(Nc1nncs1)C1COc2ccccc2O1 (stereo not given)
  20, 2%, 19, 0.0%, -1%, 5, 1, -7%, -6%, 1
CS(=O)(=O)N(CC(=O)Nc1cccnc1)c1ccc2c(c1)OCCO2
  -10, 0%, 2, 0.1%, -2%, -1, 0, -3%, 8%, -1
CC1(C)CC(=O)C(CC(=O)NC(=O)NCc2ccccc2)=C(O)C1
  -7, -1%, -11, 0.4%, 0%, -22, 0, 2%, 19%, -2
Cc1nnc2sc(-c3csc4c3CCCC4)nn12
  1, 3%, 7, -0.1%, 0%, -4, 1, -3%, -5%, 26
O=S(=O)(c1ccc(F)cc1)N1CCC2(CC1)OCCO2
  -11, 1%, -4, 0.2%, -1%, -34, 2, 14%, 14%, -2
COc1ccc(-n2nc3c(c2NC(=O)c2cc4ccccc4o2)CS(=O)(=O)C3)cc1
  0, 2%, -27, -0.2%, 6%, /, /, 6%, /, 2
CC(C)=C1C2CCC1C(C(=O)NCCc1ccccc1)C2C(=O)O (stereo not given)
  -4, 2%, 6, 10%, /, -14, -2, 14%, -7%, 8
COc1ccc(/C=C/C(=O)OCC(=O)NCCC2=CCCCC2)cc1
  11, 2%, -6, -0.4%, 0%, -4, 2, -3%, ?, 3
CCOC(=O)c1c(NC(=O)CCC(=O)O)sc2c1CC(C)(C)OC2
  -11, -1%, -6, 0.1%, 3%, -10, 6, 9%, 5%, -1
COC(=O)C1=C(C)N=c2s/c(=C/c3cccs3)c(=O)n2C1c1ccc(F)cc1 (stereo not given)
  1, 2%, 3, -0.6%, 0%, 4, 0, -5%, 18%, 0
NCCc1nnc(SCc2ccc(F)cc2)o1
  4, -1%, 13, -0.4%, 4%, 1, 2, 0%, 6%, -1
COc1ccc(NC(=S)N2CCNC(=O)C2CC(=O)Nc2ccc(C)cc2)cc1 (stereo not given)
  -19, 3%, -10, -0.3%, -6%, -9, 2, 6%, 5%, 3
CC1CCCCN1S(=O)(=O)c1ccc(C(=O)Nc2nnc(-c3ccncc3)o2)cc1 (stereo not given)
  -2, -10%, -14, 0.5%, -1%, 20, -3, 5%, -5%, -8
Nc1nc(N2CCN(C(=O)c3ccco3)CC2)nc2ccccc12
  0, 1%, 8, -0.9%, 0%, 1, 5, -2%, -2%, 2
CCOc1cc(Cl)c(CNCCCN2CCOCC2)cc1OC
  5, 1%, -5, -0.1%, 4%, 6, 0, -2%, -2%, 3
Oc1ccc(CN2CCC(Cc3ccccc3)CC2)c2cccnc12
  20, -1%, -15, 0.1%, -1%, -12, -6, 31%[activator], ?, -3
COc1ccc(S(=O)(=O)NCCOc2ccccc2)cc1F
  -6, 0%, 2, -0.3%, -4%, -1, -1, 1%, 14%, 10
c1ccc(CCNc2nc(-c3ccncc3)nc3ccccc23)cc1
  -7, 5%, 2, 0.0%, -3%, -5, -4, -2%, /, 20
COC(=O)c1cc(OC)c(OC)cc1NC(=O)c1cc(-c2ccccc2)nc2ccccc12
  11, -2%, -8, -0.1%, -4%, -4, -1, -11%, 2%, 0
O=C(Nc1ccc2c(c1)OCO2)C1CCN(S(=O)(=O)c2cccs2)CC1
  29, 0%, -9, -0.1%, -1%, 4, -4, -4%, ?, 24
COc1cc(OC)cc(C(=O)N[C@H](C(=O)OCC(=O)Nc2ccc(C)cc2C)C(C)C)c1
  12, 3%, -29, -0.4%, 2%, 15, 0, 10%, -5%, -3
CNC(=O)COC(=O)c1ccccc1Oc1ccccc1
  -20, -1%, -7, 0.0%, 0%, -6, 2, -1%, -2%, 1
COc1ccccc1Cn1c(C)nnc1-c1cnn(C)c1N
  5, 2%, -1, 0.6%, 7%, 14, 2, -1%, -9%, -1
Cc1c(/C(O)=C2/C(=O)C(=O)N(CCN3CCOCC3)C2c2ccccn2)cnn1-c1ccccc1 (stereo not given)
  6, 0%, -4, 0.0%, 1%, -12, -7, -2%, -13%, 2

Compound activity as filed in PubChem BioAssay.
